CDC25B CDK2 inh: primary biochemical HTRF screen for blockers of M-phase inducer phosphatase 2 binding to CDK2/cyclin A; P30305+P24941; HTRF CDC25B-CDK2/CyclinA binding, anti-His/anti-Flag; hits give high values; z-score (no concentration beside the values); 94,000 compounds, 0.72% hits; AID 1259370, 2018;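 also: score is relative to mean and SD of negative controls; strong numbers were not always called active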
HIV TAR-Tat: TAR RNA-Tat peptide displacers, HIV-1, primary screen, biochemical, FRET, FAM/TAMRA-labeled Tat; HIV-1 TAR RNA, Tat peptide displacement FRET; hits give high values; z-score (no concentration beside the values); 100,000 compounds, 0.6% hits; AID 1259389, 2018;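 also: score is relative to mean and SD of negative controls; some compounds called inactive have numbers as strong as hits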
The depositor's hits bear a star; · = no result given; & = joins results of further samples.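 The calls were made as follows: active = z-score from 3 up in half or more of its runs; inactive = the rest.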

The line under a structure holds: HIV TAR-Tat	CDC25B CDK2 inh
- O=C(Nc1ccc2nc(NC(=O)C3CCCCC3)sc2c1)c1cccs1
  2.2	-2.1
- COC(=O)c1sc2ccccc2c1S(=O)(=O)N1CCN(c2ccc(OC)cc2)CC1
  0.14	·
- O=C1c2cccc3cccc(c23)C(=O)N1CCCc1nnc(S)n1-c1ccccc1
  0.61	0.62
- Cc1cc(N2CCC(NC(=O)Nc3ccc(Br)cc3)CC2)n2ncnc2n1
  -0.73	0.2
- CCOC(=O)c1cnc2ccc(C(=O)OC)cc2c1N1CC2(C)CC1CC(C)(C)C2 (configuration not stated)
  ·	-0.93
- Cn1cnc2c1c(=O)n(Cc1cccc(Br)c1)c(=O)n2C
  -0.43	1.4
- CCOC(=O)c1cnc(SCC(=O)NC2CCCCC2)nc1N
  1.9	-1.9
- Cc1ccc(CN2C(=O)N(c3cc(C)ccc3C)C3CS(=O)(=O)CC32)cc1 (configuration not stated)
  0.21	·
- Cc1cc(NCc2ccccc2Cl)n2nnnc2n1
  ·	-1.4
- Fc1ccc(Nc2nc(-c3ccccn3)cs2)cc1
  3.2	-0.31
- O=c1c2cccnc2n(Cc2ccccc2F)c(=O)n1C1CCCCC1
  1.4	-0.15
- O=C(CCCN1C(=O)c2cccnc2Sc2ccccc21)NC1CCCC1
  -0.38	·
- Nc1ccc(-c2nc3ccc(C(=O)O)cc3[nH]2)cc1
  3.3	-1.6
- CSC1=NC(c2ccc(N(C)C)cc2)NN1 (configuration not stated)
  ·	-3.5
- CN(C)c1ccc(C(CNS(=O)(=O)c2cc(F)ccc2F)N(C)C)cc1 (configuration not stated)
  -0.31	·
- CC1CCN(C(=O)C2CCN(c3ncnc4c3sc3cccc(F)c34)CC2)CC1
  0.06	-2.8
- O=C(O)c1c(F)c(F)cc2ccccc12
  -0.08	2.8
- O=C1CCn2nc(-c3ccc(Cl)cc3)cc2N1
  0.4	-0.36
- CCOc1ccc(S(=O)(=O)[C@H]2CS(=O)(=O)C[C@@H]2NC2CCCCC2)cc1
  0.2	0.23
- Cc1ccc(-c2noc(-c3nnn(-c4ccc(C)c(F)c4)c3C)n2)cc1
  0.5	·
- CCNC(=O)c1c(NC(=O)c2cccs2)sc2c1CCC(C(C)(C)C)C2 (configuration not stated)
  ·	-1.4
- COc1ccc(OC)c(NC(=O)CSC2=NS(=O)(=O)c3ccccc3N2)c1
  0.19	·
- Cc1cc(=O)[nH]c(=S)[nH]1
  -1.1	·
- CNc1nc(Nc2ccc(C)cc2C)c2cnn(C)c2n1
  0.76	·
- COC(=O)c1sc2ccccc2c1S(=O)(=O)N1CCc2ccccc21
  0.68	·
- O=C1NC(=O)C(c2ccc(Br)cc2)N1 (configuration not stated)
  -1	-0.73
- Cc1ccc(-c2n[nH]n3c2nc(=O)c2cc(Cl)ccc23)cc1
  -0.44	0.19
- O=C(O)CC(CC(=O)O)c1ccc(Cl)cc1
  ·	0.12
- COc1ccc(C2c3c(-c4ccccc4O)n[nH]c3C(=O)N2Cc2ccco2)cc1 (configuration not stated)
  0.03	-0.13
- NC(=O)c1c(NC(=O)COc2ccc(Br)cc2)sc2c1CCCC2
  1.8	-0.77
- O=C(NCc1cccnc1)c1nn2c(c1Cl)NC(c1ccccc1)CC2C(F)(F)F (configuration not stated)
  2.9	-0.58
- O=c1[nH]c(SCc2ccccc2)nc(O)c1C/C=C/c1ccccc1
  ·	-1.3
- CN(C(=O)CSc1nccn(-c2ccc(F)cc2)c1=O)c1ccccc1
  0.04	·
- O=C(Nc1cccnc1)c1cc2nc(-c3ccc(Cl)cc3)cc(C(F)(F)F)n2n1
  -0.77	-1.8
- Cn1cnc(S(=O)(=O)N2CCN(c3ccc(F)cc3)CC2)c1
  1.8	·
- Cc1ccc(N(C)S(=O)(=O)c2ccc(-c3cc(C)no3)s2)cc1
  -2.1	·
- NC(=O)c1cccc(N)c1
  0.71	·
- CCSCCOC(=O)C1=C(C)NC2=C(C(=O)CC(C)(C)C2)C1c1coc2ccc(C)cc2c1=O (configuration not stated)
  -4.1	-0.33
- CC(Sc1nc2c(c(=O)[nH]1)CCCC2)C(=O)Nc1ccc(Cl)cc1 (configuration not stated)
  -0.06	-0.94
- CCC(C)NC(=O)CSc1nnc2ccc3ccccc3n12 (configuration not stated)
  -0.88	-0.9

Three entries from above, in markdown.
| SMILES | HIV TAR-Tat | CDC25B CDK2 inh |
| --- | --- | --- |
| CCOc1ccc(S(=O)(=O)[C@H]2CS(=O)(=O)C[C@@H]2NC2CCCCC2)cc1 | 0.2 | 0.23 |
| Cc1cc(=O)[nH]c(=S)[nH]1 | -1.1 | · |
| Fc1ccc(Nc2nc(-c3ccccn3)cs2)cc1 | 3.2 | -0.31 |

Next section.
The line under a structure holds: HIV TAR-Tat	CDC25B CDK2 inh
- Cc1cc2c(cc1S(=O)(=O)N1CCOCC1)OCC(=O)N2
  3.3	·
- NC(=O)CSc1nnc(Nc2ccccc2)s1
  1.2	-0.59
- CCOC(=O)N1CCN(C(=O)CSc2ncccn2)CC1
  -0.3	-0.5
- CCOC(=O)/C(=N\Nc1ccccc1)c1csc(Nc2ccc(C)cc2)n1
  ·	-2.2
- O=C1CC(c2ccco2)Cc2[nH]c(=O)c(-c3nc(-c4cccc(Cl)c4)cs3)cc21 (configuration not stated)
  6.6	9.4
- N#Cc1c2c(c(N3CCOCC3)n3c1nc1ccccc13)CCCC2
  -0.22	-0.69
- Cc1c(CCNS(=O)(=O)c2ccc(Br)cc2)sc2nc(-c3ccc(F)cc3)nn12
  0.42	·
- Cc1ccccc1Cn1c(=O)n(C(C)C)c(=O)c2oc3ccccc3c21
  1.8	·
- CN(C(=O)c1cc(-c2cccnc2)n[nH]1)C1CCCCC1
  3.1	·
- C=C[C@@](C)(/C=C/c1ccc(O)cc1)CCC=C(C)C
  1.4&2.4	·
- N#Cc1cc2c(nc1SCC(=O)Nc1ccc(Cl)cc1)CCCC2
  1.5	-2.2
- Cc1nc2c(c(C)c1CCC(=O)N1CCN(C(=O)c3ccco3)CC1)c(=O)n(C)c(=O)n2C
  0.53	1.4
- O=C(CSc1nc(-c2ccco2)nc2cc(=O)[nH]n12)NCCc1ccc(Cl)cc1
  0.48	·
- CC(=O)Nc1ccc(C2=CSC3=NCCN23)cc1
  ·	-2.1
- Cc1cccc(-c2nc3c(c(=O)[nH]2)Cc2cc(Br)ccc2O3)c1
  1.1	-0.79
- CN(C)c1ccc(CNC(=O)c2cnc3sccn3c2=O)cc1
  1.8	·
- Clc1ccc(C2=CSC3=NCCN23)cc1
  1.4	·
- c1csc(-c2nc(-c3cccs3)c(-c3cccs3)[nH]2)c1
  -0.71	19*
- CCCNC(=O)N1CCCN(S(=O)(=O)c2ccc3c(ccn3CC)c2)CC1
  0.99	·
- CC(=O)N1N=C(c2cccnc2)OC1c1ccc(-c2ccccc2)cc1 (configuration not stated)
  1.8	·

Entries above that have a COOH group:
The line under a structure holds: HIV TAR-Tat	CDC25B CDK2 inh
- Nc1ccc(-c2nc3ccc(C(=O)O)cc3[nH]2)cc1
  3.3	-1.6
- O=C(O)c1c(F)c(F)cc2ccccc12
  -0.08	2.8
- O=C(O)CC(CC(=O)O)c1ccc(Cl)cc1
  ·	0.12

Additional entries.
The line under a structure holds: HIV TAR-Tat	CDC25B CDK2 inh
- CSc1cccc(Nc2c(-c3ccc4c(c3)CCCC4)c(=O)c2=O)c1
  -1.6	·
- NC(=O)c1cc(S(=O)(=O)N2CCN(C(c3ccc(F)cc3)c3ccc(F)cc3)CC2)cs1
  1.7	·
- CN1CCN(C(=O)COCc2cc(-c3ccc4c(c3)OCO4)on2)CC1
  1.8	·
- CCOc1ccc(Nc2oc(/C=C/c3cccs3)nc2C#N)cc1
  -0.98	-1.2
- O=C1Nc2ccccc2/C1=C/c1cc2ccccc2n1S(=O)(=O)c1ccccc1
  ·	-1.2
- Cn1c(=O)c2c(nc(OCc3ccccc3)n2C)n(C)c1=O
  1.6	0.88
- CC(NC(=O)C(=O)N1CCOCC1)C(c1cccs1)N1CCN(c2ccc(F)cc2)CC1 (configuration not stated)
  ·	-0.75
- Cc1ccc2nc(NCCO)[nH]c2c1
  1.5	0.38
- O=C(CC1CCCC1)Nc1nnc2n1CCS2
  0.48	·
- CCOC(=O)N1CCN(c2c(-c3ccc(C)cc3)c(=O)c2=O)CC1
  2.2	·
- CCOC(=O)C1=C(C)NC2=C(C(=O)CC(c3ccccc3)C2)C1c1cccnc1 (configuration not stated)
  1.4	-0.38
- COc1ccc(C2CC(=O)N3C(=C2C#N)SCC3(O)c2ccc(OC)cc2)cc1 (configuration not stated)
  ·	-1
- Cc1cc(=O)[nH]c(SCC(=O)c2c(C)[nH]c3ccccc23)n1
  2	-2.2
- COc1ccc(-c2cc(=O)c3c(O)cc(O[C@H]4O[C@H](CO[C@@H]5O[C@@H](C)[C@H](O)[C@@H](O)[C@H]5O)[C@@H](O)[C@H](O)[C@H]4O)cc3o2)cc1
  0.89	·
- CCOc1cc(C(=O)NC(c2ccccc2)c2ccccc2)cc(OCC)c1OCC
  ·	-4.2
- COCc1[nH]nc2c1C(c1ccc(OC)c(OC)c1)C(C#N)=C(N)O2 (configuration not stated)
  1.4	-0.64
- COc1ccc2cc3c(nc2c1)N(C(=O)C1CCCCC1)CC3
  -0.65	0.63
- Cc1c(S(=O)(=O)N2CCc3ccccc3C2)cc(-c2nc(-c3ccccc3)cs2)n1C
  1.7	·
- C=CCc1c(C)nc2nc(SCc3cc(=O)n4ccc(Br)cc4n3)nn2c1C
  ·	-3
- COC(=O)c1c(OC)ccc(N=CNO)c1OC
  ·	-2.2
- O=C(O)C1CC(=O)N(CCc2cccs2)C1 (configuration not stated)
  ·	-2.6
- CCNc1ncccc1-c1nc(-c2ccccc2)no1
  1.4	0.76
- Cc1ccc(CNc2ncnc3c2cnn3-c2ccc(C)cc2)cc1
  1.2	·
- COc1cc2c3cc1Oc1c(OC)c(OC)cc4c1[C@@H](Cc1ccc(O)c(c1)Oc1ccc(cc1)C[C@@H]3N(C)CC2)N(C)CC4
  1.9	·
- COc1ccc(Cl)cc1Nc1nc2ccc(C)cc2n2cnnc12
  -0.01	1.1
- CCOC(=O)N1CCC(NS(=O)(=O)c2cc(C(=O)OC)n(C)c2)CC1
  0.9	-0.82
- COc1ccc(N2C(=O)CC(NCCCN3CCN(C)CC3)C2=O)cc1 (configuration not stated)
  ·	-1.2
- O=C(c1cnn(-c2ccc(F)cc2)c1-n1cccc1)N1CCCC1
  0.82	·
- O=C(NC1CCCC1)c1ccc(N2CCOc3ccc(Cl)cc32)s1
  0.81	·
- c1ccc(Nc2c3c(nc4ncnn24)CCCC3)cc1
  0.24	·
- CCN(C(=O)c1cc2c(s1)-c1ccccc1S(=O)(=O)C2)c1cccc(Cl)c1
  1.5	0.68
- O=C(c1ccc2c(c1)OCO2)N(c1ccc(F)cc1)C1C=CS(=O)(=O)C1 (configuration not stated)
  ·	0.68
- CCCCC(CC)CNC(=O)C1C2C=CC(C2)C1C(=O)O (configuration not stated)
  0.75	-0.81
- Cc1ccc(N2C(=O)c3cccnc3C2O)cc1 (configuration not stated)
  -0.25	-1.6
- COC(=O)C1=C(C)NC(=O)NC1c1ccc(O)cc1 (configuration not stated)
  ·	-0.17
- Cc1ccc(-c2noc3ncnc(Nc4ccc5c(c4)OCO5)c23)cc1
  1.2	·
- COc1ccc(NC(=O)c2cccs2)cn1
  ·	-0.91
- CCc1ccc(-c2nc3ncccn3c2NCc2ccc(F)cc2)cc1
  0.51	·
- Cc1nc(-c2csc(S(=O)(=O)Nc3cc(F)ccc3F)c2)no1
  1.2	·
- CC(=O)Nc1ccc(-n2nncc2-c2ccco2)cc1
  1.3	·
- Oc1ccc(Cc2nc3ccccc3[nH]2)cc1
  2.4	-1.8
- CCCc1c(C)nc2ncnn2c1Nc1ccc(OC)cc1
  0.95	-1.2
- NS(=O)(=O)c1ccc2c(c1)C1C=CCC1C(C1CC=CCC1)N2 (configuration not stated)
  -6.8	-0.43
- O=c1ccc(-c2ccc(S(=O)(=O)NCCCc3ccccc3)s2)n[nH]1
  -0.61	·
- CCc1ccc(OCc2cc(=O)n3c4c(sc3n2)CCCC4)cc1
  2	-1.4
- CCOC(=O)/C(C#N)=C/NCCc1ccc(Cl)cc1
  ·	-1.4
- COc1ccc(C2CC(=O)NC3=C2C(=O)CC(C)(C)C3)cc1OC (configuration not stated)
  2.8	0.11
- Cn1c(CNC(=O)CSc2nc(-c3ccccc3F)nc3cc(=O)[nH]n23)nc2ccccc21
  0.77	·
- COC(=O)c1ccc2c(=O)n3nc(N)sc3nc2c1
  -0.56	0.3
- CC(=O)N1c2ccc(S(=O)(=O)NCC3CCC(C(=O)NC(C)(C)C)CC3)cc2CC1C (configuration not stated)
  0.47	·
- O=C(NC1CC1)c1ccc2c(c1)nc1n2CCOC1
  1.2	·
- O=c1c2ccccc2c(-c2ccccc2)nn1-c1ccccn1
  ·	-1.1
- CC1Oc2ccccc2N(CC(=O)N2CCN(c3ccc(=O)n(-c4ccccc4)n3)CC2)C1=O (configuration not stated)
  -0.32	·
- Cn1c(=O)c2c(c3ccccc31)OC(=O)CC2c1ccccc1 (configuration not stated)
  -0.31	-0.44
- CCCCn1c(C)nc2c(sc3nc4c(cc32)COC(C)(C)C4)c1=O
  ·	0.32
- CC(C)CC(=O)NC(NC(=S)Nc1cccc(Br)c1)C(Cl)(Cl)Cl (configuration not stated)
  ·	0.26
- Cc1cc(Cl)ccc1OCc1cc(=O)n2ccsc2n1
  2.2	-1.5

Assay outcomes from PubChem.
